KCNQ2 inh: KCNQ2 potassium channel inhibitors, primary screen, cell-based, CHO-K1, FluxOR thallium flux, B-score (AID 2156) | 20 min; active compounds read low; only compounds with negative scores are shown here; some inactives read as strong as hits | B-score at 10 µM | 310,000 compounds, 1.1% hits;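 active = fluorescence ratio B-score at most minus 3 library SDs, with starting brightness B-score within 2 library SDs, cut at about -5.5 in these data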
Target sequence (O88943 whole entry, looked up): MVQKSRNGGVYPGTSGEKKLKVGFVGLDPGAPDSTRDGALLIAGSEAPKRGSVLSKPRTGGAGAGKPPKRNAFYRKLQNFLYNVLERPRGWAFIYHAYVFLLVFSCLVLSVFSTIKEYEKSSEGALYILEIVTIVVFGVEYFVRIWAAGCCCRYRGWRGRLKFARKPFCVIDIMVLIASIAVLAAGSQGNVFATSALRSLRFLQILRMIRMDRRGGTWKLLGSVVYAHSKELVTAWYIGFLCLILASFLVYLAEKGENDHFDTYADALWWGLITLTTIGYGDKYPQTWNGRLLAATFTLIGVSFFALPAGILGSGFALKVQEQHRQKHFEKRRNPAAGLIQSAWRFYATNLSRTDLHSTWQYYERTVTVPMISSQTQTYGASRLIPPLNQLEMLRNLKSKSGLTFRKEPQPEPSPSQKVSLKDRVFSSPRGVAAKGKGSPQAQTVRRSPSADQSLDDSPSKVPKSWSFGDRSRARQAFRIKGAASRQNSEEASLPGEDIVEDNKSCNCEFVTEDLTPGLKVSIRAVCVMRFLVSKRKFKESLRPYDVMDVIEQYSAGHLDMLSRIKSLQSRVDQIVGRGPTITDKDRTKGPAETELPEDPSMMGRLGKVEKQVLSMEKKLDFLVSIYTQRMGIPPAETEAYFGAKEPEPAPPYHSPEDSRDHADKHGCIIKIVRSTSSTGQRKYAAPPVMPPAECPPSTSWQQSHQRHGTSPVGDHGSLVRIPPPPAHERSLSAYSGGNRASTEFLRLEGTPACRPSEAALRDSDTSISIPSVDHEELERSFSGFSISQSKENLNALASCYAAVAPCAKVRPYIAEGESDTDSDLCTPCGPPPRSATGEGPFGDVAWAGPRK
KCNQ2 inh baseline: second read-out of KCNQ2 inh, no call of its own (marks repeat the call); B-score; measured here: initial fluorescence intensity artifact check;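 brightness before thallium and not channel activity; 0 = typical well and far values either way flag optical interference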
The depositor's hits bear a star; i = inactive. The list is partial (hit frequency here may not be typical).

SMILES	KCNQ2 inh	KCNQ2 inh baseline
Cc1ccc(C)c(-c2ccc(=O)n(Cc3cccc(Br)c3)n2)c1	i	1.78
COc1ccc(-c2nc(N)n(C(C)=O)n2)cc1	i	1.43
CC12CN3CC(C)(CN(C1)C3c1ccc(F)cc1)C2 (stereo not given)	i	-0.07
COc1ccccc1CNC(=O)C1CCC(=O)N1C(C)C (stereo not given)	i	-2.12
COc1cc(C2=Nc3c(c(C)nn3-c3ccccc3)P(=O)(N3CCOCC3)O2)cc(OC)c1OC (stereo not given)	i	1.98
CCNc1ccc(C(=O)OC(C(=O)NC(N)=O)C(C)C)cc1[N+](=O)[O-] (stereo not given)	i	0.12
COc1ccc(S(=O)(=O)N(C)CC(=O)NCCCN2CCOCC2)cc1Cl	i	1.36
Cc1nc(NC(=O)/C=C/c2ccccc2)sc1C(=O)NCCO	i	0.18
COc1cccc(NC(=O)Nc2ccc(Br)cn2)c1	i	-1.25
CCn1c(SCC(=O)N2CCCCC2C)nnc1-c1ccc(S(=O)(=O)N2CCN(C)CC2)cc1 (stereo not given)	i	-0.54
O=C(CCN1C(=O)S/C(=C\c2ccccc2)C1=O)NCCCn1ccnc1	i	3.05
O=C(NNC(=O)NC1CCCCC1)NC1CCCCC1	i	-0.59
c1coc(C2=Nc3cccc4cccc(c34)N2)c1	i	-2.19
O=C(CCS(=O)(=O)c1ccccc1)Nc1nc2cc3c(cc2s1)OCCO3	i	0.63
COCCOC(=O)c1c(NC(=O)CN2CCc3ccccc32)sc(C(N)=O)c1C	i	-0.05
CN(C)CCCNC(=S)NCC(c1ccc(Cl)cc1Cl)c1c[nH]c2ccccc12 (stereo not given)	i	1.87
CC(=O)CSc1nnc2cc(C)c3ccccc3n12	i	-1.56
COc1ccc(OC)c(CN2CCN(Cc3cc(OC)c(OC)c(OC)c3)CC2)c1	i	0.79
CC(/C=C/c1ccccc1)=N\Nc1nc(C)cc(C)n1	i	-0.92
Cc1ccc(Nc2nc(N)c(C#N)c(CC#N)c2C#N)cc1	i	-0.06
N/C(=N\OC(=O)/C=C/c1ccccc1)c1ccccc1	i	1.4
COc1ccc(OC)c(S(=O)(=O)N2CCN(c3ncccn3)CC2)c1	i	1.72
N#CC12COC3(CCCCC3C1(C#N)C#N)OC2=N (stereo not given)	i	-0.42
CCC(=O)Nc1cc(-c2nn(C)c(=O)c3ccccc23)ccc1OC	i	0.28
Cc1ccnc(NC(=O)c2ccc(S(=O)(=O)N3CCCC3)cc2)c1	i	2.53
COc1ccc(-c2ccc(C(=O)C3CC3)cc2)cc1	i	0.72
COc1ccc(CC(NC(C)=O)C(=O)NC2CCN(C(=O)c3cnccn3)CC2)cc1 (stereo not given)	i	-1.88
CC(C)OC(=O)CCCCCN1C(=O)CSC1=S	i	-0.04
O=C1CC(=O)Nc2cc(S(=O)(=O)N3CCOc4ccc(Cl)cc43)ccc2N1	i	-1.24
O=C(Cn1c(=O)n(Cc2ccco2)c(=O)c2c3c(sc21)CCCCC3)Nc1ccccc1	i	2.52
O=C(NCc1ccc(Cl)cc1)c1cccnc1	i	-0.41
COC(=O)c1cc(OC)c(OC)cc1NC(=O)c1cc(C(C)(C)C)oc1C	i	-0.07
O=C1CC(N2CCN(CCc3ccccn3)CC2)C(=O)N1c1ccc(Cl)cc1 (stereo not given)	i	1.46
COc1ccccc1N1CCN(C(=O)COc2ccc(Cl)cc2Br)CC1	i	-2.97
CCOC(=O)c1sc2ncnc(N3CCN(c4ccc(OC)cc4)CC3)c2c1C	i	-0.08
CCOc1ccc(Cl)cc1CN1CCOCC1	i	0.8
O=C(c1ccc(NC(=S)NCc2ccc(Cl)cc2)cc1)N1CCCCC1	i	-0.08
O=C(CSC1=NC2(CCCCCC2)N=C1c1ccccc1)Nc1ccc2c(c1)OCCO2	i	-0.21
Cc1cc(C)n(Cc2ccccc2)c(=O)c1S(=O)(=O)c1ccccc1	i	-0.93
O=C(COc1ccc(S(=O)(=O)N2CCOCC2)cc1)NC1CCCC1	i	0.03
CCOCCCNC(=O)c1ccc2c(c1)ncn2-c1ccc(C)cc1C	i	-1.03
CCOC(=O)c1c(NC(=O)CC2SC(=NC)N(C)C2=O)sc(C)c1C (stereo not given)	i	1.5
CCc1ccc(OCc2ccc(C(=O)OC)o2)cc1	i	0.81
O=C(Nc1nc2ccccc2n1Cc1ccccc1)c1ccco1	i	0.08
O=C(NCCCN1CCOCC1)c1ccc(N2CCCC2)c([N+](=O)[O-])c1	i	-1.17
COc1ccc(N(CC(=O)NC2CCCCCCC2)S(=O)(=O)c2c(C)nn(C)c2C)cc1	i	1.26
O=C(O)C1CC=CCC1C(=O)NC1CCCCC1 (stereo not given)	i	-2.32
COc1ccc(CN2CCCC(CNC(=O)c3ccc(F)cc3)C2)c(F)c1 (stereo not given)	i	0.76
O=C(Nc1ccc(F)cc1F)C1CCN(C(=O)c2ccc(Br)cc2)CC1	i	1.72
CCCCCCn1c(CN2CCCCC2CC)nc2c1c(=O)n(C)c(=O)n2C (stereo not given)	i	1.17
COc1cccc(C(=O)Nc2cc(C(F)(F)F)ccc2Cl)c1	i	0.13
CN(C)CCCCOc1ccc(F)cc1	i	-1.12
COc1ccc(-c2csc3nc(C)nc(N4CCCCC4)c23)cc1OC	i	2.37
CCn1c(CNC(=O)c2ccc(OC)c(OC)c2)nnc1SCC(=O)Nc1ccc(OC)cc1	i	0.48
CS/C(=C\[N+](=O)[O-])Nc1ccc(Cl)cc1	i	-1.56
C/C(=N\NS(=O)(=O)c1ccccc1)c1cc(Cl)cc(Cl)c1O	i	0.33
Cc1csc(NC(=O)c2ccc3ccccc3n2)n1	i	-0.43
O=C(Nc1ccccc1)c1ccc(Nc2c([N+](=O)[O-])cc([N+](=O)[O-])c3ccccc23)cc1	i	-2.49
Cc1cc(=O)[nH]c2nnnn12	i	0.42
CCCCSc1nc(C)nc2c1c(=O)n(C)c(=O)n2C	i	0.03

15 entries from above, set out differently:
| SMILES | KCNQ2 inh | KCNQ2 inh baseline |
| --- | --- | --- |
| COc1ccc(N(CC(=O)NC2CCCCCCC2)S(=O)(=O)c2c(C)nn(C)c2C)cc1 | i | 1.26 |
| O=C(O)C1CC=CCC1C(=O)NC1CCCCC1 (stereo not given) | i | -2.32 |
| COc1ccc(CN2CCCC(CNC(=O)c3ccc(F)cc3)C2)c(F)c1 (stereo not given) | i | 0.76 |
| O=C(Nc1ccc(F)cc1F)C1CCN(C(=O)c2ccc(Br)cc2)CC1 | i | 1.72 |
| CCCCCCn1c(CN2CCCCC2CC)nc2c1c(=O)n(C)c(=O)n2C (stereo not given) | i | 1.17 |
| COc1cccc(C(=O)Nc2cc(C(F)(F)F)ccc2Cl)c1 | i | 0.13 |
| CN(C)CCCCOc1ccc(F)cc1 | i | -1.12 |
| COc1ccc(-c2csc3nc(C)nc(N4CCCCC4)c23)cc1OC | i | 2.37 |
| CCn1c(CNC(=O)c2ccc(OC)c(OC)c2)nnc1SCC(=O)Nc1ccc(OC)cc1 | i | 0.48 |
| CS/C(=C\[N+](=O)[O-])Nc1ccc(Cl)cc1 | i | -1.56 |
| C/C(=N\NS(=O)(=O)c1ccccc1)c1cc(Cl)cc(Cl)c1O | i | 0.33 |
| Cc1csc(NC(=O)c2ccc3ccccc3n2)n1 | i | -0.43 |
| O=C(Nc1ccccc1)c1ccc(Nc2c([N+](=O)[O-])cc([N+](=O)[O-])c3ccccc23)cc1 | i | -2.49 |
| Cc1cc(=O)[nH]c2nnnn12 | i | 0.42 |
| CCCCSc1nc(C)nc2c1c(=O)n(C)c(=O)n2C | i | 0.03 |

(list continues)
SMILES	KCNQ2 inh	KCNQ2 inh baseline
C/C(=C\C(=O)c1ccc(Br)cc1)NCc1ccc2c(c1)OCO2	-6.87*	0.69*
CCc1ccc(Nc2ccc3nonc3c2[N+](=O)[O-])cc1	i	2.31
CC(C)(C)c1cc(=O)n2[nH]c(N)nc2n1	i	-0.78
CC1CN(S(=O)(=O)c2cc(C(=O)NCCC3=CCCCC3)ccc2Cl)CC(C)O1 (stereo not given)	i	-1.03
CCCc1cc(CN(C)C(=O)CC2C(=O)NCCN2Cc2ccccc2C)[nH]n1 (stereo not given)	i	1.04
COc1cccc(/C=N/n2cnc3c(cnn3-c3ccccc3)c2=O)c1	i	1.22
CCOC(=O)c1ccc(Nc2nc(N3CCOCC3)nc(N3CCOCC3)n2)cc1	i	0.45
CC(C)CC(COCc1ccc(Cl)cc1)N1CCN(C(=O)c2ccc(Cl)cc2Cl)CCC1=O (stereo not given)	i	0.12
Cc1ccc(N(CC(=O)N/N=C/c2ccc(OCC(N)=O)cc2)S(C)(=O)=O)cc1Cl	i	-0.53
O=C(Nc1ccc(F)cc1)OCCOc1ccc([N+](=O)[O-])cc1	i	0.68
Cc1c(C#N)c(N=CN(C)C)c(C(=O)c2ccc(Br)cc2)n1-c1ccccc1	i	0.58
Cc1ccccc1NCc1ccc(O)c2ncccc12	i	1.91
CSc1nc(Sc2ccccc2)c2ccccc2n1	i	0.19
COc1ccc(CNCCC(c2ccc(F)cc2)c2ccc(OC)cc2)cc1 (stereo not given)	i	-1.52
C/C(N)=C(/C#N)C(=O)CSc1nc2ccccc2[nH]1	i	-0.54
CCOc1ccccc1N(CC(=O)Nc1ccc2c(c1)OCCO2)S(C)(=O)=O	i	-0.16
COCCn1nnnc1C(c1ccccn1)N1CCN(c2cccc(C)c2C)CC1 (stereo not given)	i	0.7
CCOC(=O)c1c(N)sc(-c2ccccc2)c1C	i	-0.38
CCOC(=O)c1cc2sccc2n1CC(=O)Nc1ccc(OC)cc1	i	1.4
O=C(CCc1ccc(S(=O)(=O)NC2CCCCC2)cc1)N(Cc1ccccc1)Cc1ccccc1	i	-0.56
CN(C)CCOc1ccc(C(C)(C)c2ccccc2)cc1	i	0.79
Cc1ccnc(NC(=O)c2cccc(S(=O)(=O)N3CCN(c4ccccc4)CC3)c2)c1	i	0.65
CCC(NC(=O)CNC(=O)CNC(=O)c1ccc(Cl)cc1Cl)c1ccc(C)cc1 (stereo not given)	i	0.85
COc1ccc(NC(=O)N2CCCC2C(=O)NCc2ccccc2Cl)cc1 (stereo not given)	i	2.1
COc1ccc2c(c1)C(=O)CC(c1ccc3c(c1)OCCO3)O2 (stereo not given)	i	0.95
CCOC(=O)N1CCN(C(=O)C2CCN(S(=O)(=O)CC)CC2)CC1	i	-1.17
Cc1ccc(Nc2nc(N)nc(CN3CCN(C(=O)c4ccco4)CC3)n2)cc1Cl	i	1.34
CN1C(=O)C(CC(=O)Nc2ccc(F)cc2)N(Cc2ccco2)C1=S (stereo not given)	i	-1.81
CC(C)(C)n1nnnc1C(c1ccc(C(F)(F)F)cc1)N(Cc1ccccc1)Cc1ccco1 (stereo not given)	-10.9*	-1.35*
O=C(CCN1C(=O)/C(=C\C=C\c2ccccc2)SC1=S)Nc1ccc(C(=O)O)cc1	i	-1.8
COC(=O)c1cc2c(cc1N)OCCO2	i	-0.15
CC(=O)c1cccc(NC(=O)Cn2cnc(S(=O)(=O)N3CCCC3)c2)c1	i	0.45
Cn1c(C(=O)O)cc2cc(Oc3ccccc3)ccc21	i	0.25
CC(SC1=NCCS1)C(=O)Nc1nnc(-c2ccc(Br)cc2)s1 (stereo not given)	i	0.3
O=C(Cc1c(Sc2ccccc2)c2ccccc2n1Cc1ccccc1)NCCO	i	-1.71
COc1ccccc1N1CCN(C(=O)c2cc3c(s2)CCCCC3)CC1	i	-1.5
CCOc1ccc(C(=O)/C=C/c2ccc(OC)c(OC)c2)cc1	i	0.84
COC(=O)[C@H]1C[C@@H]1[C@H](NS(=O)(=O)c1ccc2ccccc2c1)c1ccccc1	i	-2.41
CC(=O)c1ccc(N2CCN(S(=O)(=O)c3cccc(S(=O)(=O)N4CCOCC4)c3)CC2)cc1	i	-0.59
COC(=O)C(CSCc1ccccc1)NC(=O)CSc1nc(C)cc(=O)[nH]1 (stereo not given)	i	0.45
CCOc1ccc(N(CC(=O)Nc2ccccc2C)S(=O)(=O)c2c(C)[nH]c(=O)[nH]c2=O)cc1	i	0.53
CCCNC(=O)c1ccccc1NC(=O)Cc1ccc(OC)c(S(=O)(=O)N2CCOCC2)c1	i	0.26
CCOc1ccc(-n2nc(C(=O)NC3CCCCC3)c3ccccc3c2=O)cc1	i	1.21
CCOc1ccc(N2C(=O)/C(=C/c3ccccn3)SC2=S)cc1	i	-0.19
O=[N+]([O-])c1ccc(/C=N/Nc2nc(N3CCCCC3)nc(N3CCCCC3)n2)cc1	i	-0.11
O=P(Cc1ccccc1)(c1ccccc1)c1ccccc1	i	0.44
CC1(C)CC(=O)c2cc(N=C/C(C(=O)c3ccccc3)=C(\O)c3ccccc3)c(=O)oc2C1	i	3.57
CCCCN(CCCC)CCCNC(=O)C1CC(c2ccc(C(F)(F)F)cc2)=NO1 (stereo not given)	i	0.02
Nc1c(C(=O)Nc2ccc(S(=O)(=O)N3CCCC3)cc2)sc2nc3cc4c(cc3cc12)CCC4	i	0.46
CC1CCCC(C)N1C(=O)COc1ccc(C(=O)N/N=C/c2ccc(C(=O)O)cc2)cc1 (stereo not given)	i	0.41
CNS(=O)(=O)c1ccc(NC(=O)C(CCSC)NC(N)=O)cc1 (stereo not given)	i	0.73
CCC(C)C(NC(=O)c1ccc(Cl)cc1)C(=O)O (stereo not given)	i	0.88
O=C(NCc1ccc(F)cc1)C1CCC(=O)N1C1CCCCC1 (stereo not given)	i	1.93
O=C(O)c1ccccc1-c1nc2ccccc2c(=O)n1O	i	0.04
Cc1ccc(C)c(CS(=O)(=O)c2cn(CC(=O)N3CCC(C)CC3)c3ccccc23)c1	i	0.19
CC(=O)Nc1ccccc1NC(=O)CC(C)(C)C	i	-1.35
CSc1ccccc1C(=O)C1CCCN(S(=O)(=O)N(C)C)C1 (stereo not given)	i	-0.66
CCN(CC)C(=O)c1ccc(NS(=O)(=O)c2ccccc2)cc1	i	2.78
CCCCN1CNC(=S)N(CCc2ccc(OCC)c(OCC)c2)C1	i	0.32
